# RecA intein inh: Mtb RecA intein splicing inhibitors, primary screen, biochemical, fluorescence, HTS; 290,000 tested, 0.75% active; Protein RecA (Mycobacterium tuberculosis (strain ATCC 25618 / H37Rv)), P9WHJ3; cell-free RecA intein splicing; AID 2221, 2009; inhibition, %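 (about 9 µM by stock and volumes)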; in the data active means inhibition above about 30%; inconclusive means no clear call, values can overlap the other calls;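 further: 0% = vehicle wells and 100% = reference inhibitor control wells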
# Target sequence (P9WHJ3 whole entry, looked up): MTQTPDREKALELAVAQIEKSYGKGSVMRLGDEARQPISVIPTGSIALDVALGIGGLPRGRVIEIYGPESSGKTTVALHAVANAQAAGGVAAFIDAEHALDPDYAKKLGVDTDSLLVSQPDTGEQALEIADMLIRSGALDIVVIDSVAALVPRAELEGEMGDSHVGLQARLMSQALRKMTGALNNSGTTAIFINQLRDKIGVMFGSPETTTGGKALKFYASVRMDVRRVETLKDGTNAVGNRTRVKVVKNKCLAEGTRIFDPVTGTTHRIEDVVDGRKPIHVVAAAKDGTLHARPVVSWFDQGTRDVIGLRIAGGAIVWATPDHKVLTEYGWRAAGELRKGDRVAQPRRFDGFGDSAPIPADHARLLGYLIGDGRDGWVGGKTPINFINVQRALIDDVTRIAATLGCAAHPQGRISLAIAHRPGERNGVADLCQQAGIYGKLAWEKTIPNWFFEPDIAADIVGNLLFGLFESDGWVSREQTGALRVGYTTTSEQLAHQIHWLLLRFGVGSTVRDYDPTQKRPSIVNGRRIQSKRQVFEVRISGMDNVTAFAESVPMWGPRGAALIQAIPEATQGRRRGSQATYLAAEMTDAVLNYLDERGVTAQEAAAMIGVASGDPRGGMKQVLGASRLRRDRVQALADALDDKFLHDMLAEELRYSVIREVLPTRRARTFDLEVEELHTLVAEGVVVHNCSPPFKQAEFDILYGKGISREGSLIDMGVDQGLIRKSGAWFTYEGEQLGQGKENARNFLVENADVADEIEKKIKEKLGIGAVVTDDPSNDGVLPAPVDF
# YopH inh: YopH tyrosine phosphatase inhibitors, primary screen, biochemical, fluorescence Ex485/Em525 | YopH tyrosine phosphatase [Yersinia enterocolitica] | inhibition, %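 (about 10 µM by stock and volumes)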 | 140,000 tested, 0.16% active | AID 898, 2007;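 active means inhibition of 50% or more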;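 further: controls were vehicle for no effect and minimum signal wells for full effect; inactives centre near -20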
# Mtb growth: M. tuberculosis H37Rv growth inhibitors, H37Rv strain (AID 1626). M. tuberculosis H37Rv growth inhibition; higher % means a stronger effect. inhibition, % at 10 µM, or IC50 in µM where a hit was titrated. 220,000 tested, 0.95% active;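 active means confirmed in a dose series; inconclusive means inhibition above 80% but not taken into the dose series; inactive means below 80% or under 30% at every dose of the series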;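 further: bacteria incubated seven days before Alamar blue readout; 0% = bacteria only wells and 100% = bacteria with antibiotic wells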
# Arbovirus inh: antivirals against arbovirus infection, primary screen, cell-based, full library, 10K replicate subset; arbovirus infection cell-based antiviral screen; inhibition, % at 10 µM; 200,000 tested, 0.37% active;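 active means inhibition from about 30%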;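 further: bluetongue infection of BSR cells; cell survival read as ATP light after 72 h; 0% = infected wells without compound and 100% = uninfected wells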
# Mtb bLac sens: beta-lactam sensitization of Mtb H37Rv, H37Rv; M. tuberculosis H37Rv growth with meropenem, percent inhibition; hits of this screen are not shown here; inhibition, % at 25 µM; 330,000 tested, 0.27% active; AID 434955, 2010;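 active means about 74% or more and at least 40 points above the plate without the antibiotic, then above 30% in a dose series; inconclusive means first-round hits that could not be retested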;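 further: growth measured after seven days incubation then overnight dye step; 0% = bacteria only wells and 100% = bacteria with antibiotic; twin plates without the antibiotic show which effects depend on it; some results filed as inactive read as strong as hits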
# Arbovirus inh repeat: also measured in Arbovirus inh; calls as there; inhibition, %; measured here: 10K subset replicate screen; many hits read low in the repeat;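 first of two repeat runs on a subset; 0% = infected and 100% = uninfected wells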
# * = called active by the depositor; ? = inconclusive; nt = no result given.
SMILES,RecA intein inh,YopH inh,Mtb growth,Arbovirus inh,Mtb bLac sens,others
COc1ccccc1-c1nc(C#N)c(N2CCN(c3cccc(Cl)c3)CC2)o1,7.8,-54,3%,0,-2,
Cc1ccc(S(=O)(=O)N2CCC(C(=O)NC3CC(C)(C)NC(C)(C)C3)CC2)cc1C,0.7,nt,nt,nt,-10,
CCc1nnc(NC(=O)CCc2c[nH]c3ccccc23)s1,-5.0,nt,-1%,9,-4,
CC12CCC(C(=O)N(NC(=O)c3ccc(O)cc3)C1=O)C2(C)C (centres undefined),1.3,-36,-12%,7,6,
COc1cccc(-c2nc(NC(C)C)c3ccccc3n2)c1O,2.1,-37,-4%,-17,43,
COc1ccc(CCNC(=O)CCC(=O)Nc2ccc3nc(N4CCN(C)CC4)cc(C)c3c2)cc1OC,0.2,nt,8%,-4,-6,
ClC1(Cl)CC1Cn1cnc2ccccc21 (centres undefined),-0.2,nt,0%,0,1,
CCc1ccc(NC(=O)C(NS(=O)(=O)c2cccc3nsnc23)c2ccccc2)cc1 (centres undefined),6.9,-17,-4%,-7,10,
Oc1ccccc1CNc1cnc2ccccc2c1,8.3,-18,11µM*,-14,98,
CCCCOC(=O)c1ccc(NC(=O)C(=O)NCC2CCCO2)cc1 (centres undefined),-0.2,-26,35%,0,92,
Cc1n[nH]c(=O)c2c(NC(=O)CSc3nc4ccccc4c(=O)n3CCCO)oc(C)c12,-1.5,nt,nt,nt,-10,
CC(C)CC(CO)N1CCN(C(=O)c2ccccc2)CCC1=O (centres undefined),-0.7,nt,-6%,nt,-2,
Cc1cc(C)nc(CCNC(=O)C2CCC(=O)N(Cc3ccccc3F)C2)n1 (centres undefined),-0.7,nt,nt,nt,2,
O=C(CN1CCN(c2ccccc2)CC1)Nc1cccc([N+](=O)[O-])c1,-6.4,nt,0%,7,-16,
CC1CCc2nc(/C(C#N)=C/c3ccncc3)sc2C1 (centres undefined),-280,nt,6%,7,49,
CS(=O)(=O)c1ccc(C(=O)Nc2ccccc2N2CCOCC2)c(Cl)c1,-1.7,nt,0%,11,0,
CC(=O)N1c2ccc3ccccc3c2C(C)CC12CCCCC2 (centres undefined),24,-6,-1%,-30,3,
Cc1cccc(NC(=O)NCC(c2ccc(F)cc2)N2CCN(C)CC2)c1 (centres undefined),0.8,nt,nt,nt,-8,
CCCN1C(=O)/C(=C/c2ccc(OCc3ccc(C(=O)O)cc3)c(OC)c2)NC1=S,6.1,nt,nt,nt,92,
COc1ccc(OC)c(NCc2nnc(-c3ccccc3)o2)c1,-5.2,nt,nt,nt,7,
CCC1Sc2ccc(S(=O)(=O)CCC(=O)Nc3ccc(NC(C)=O)cc3)cc2NC1=O (centres undefined),-1.3,nt,nt,nt,-4,
CSCCC(NC(=O)c1cccc([N+](=O)[O-])c1)c1nc2ccccc2[nH]1 (centres undefined),2.7,2,24%,-8,-7,
O=C(CCNS(=O)(=O)c1ccccc1C(F)(F)F)NNC(=O)c1csc(N2CCOCC2)n1,-2.0,nt,nt,nt,-6,
c1ccc(CCNc2ncnc3ccccc23)cc1,-1.6,nt,-7%,20,0,

# Structures shown so far that have two or more sulfur atoms (three):
SMILES,RecA intein inh,YopH inh,Mtb growth,Arbovirus inh,Mtb bLac sens,others
CCc1ccc(NC(=O)C(NS(=O)(=O)c2cccc3nsnc23)c2ccccc2)cc1 (centres undefined),6.9,-17,-4%,-7,10,
CCC1Sc2ccc(S(=O)(=O)CCC(=O)Nc3ccc(NC(C)=O)cc3)cc2NC1=O (centres undefined),-1.3,nt,nt,nt,-4,
O=C(CCNS(=O)(=O)c1ccccc1C(F)(F)F)NNC(=O)c1csc(N2CCOCC2)n1,-2.0,nt,nt,nt,-6,

# (more compounds)
SMILES,RecA intein inh,YopH inh,Mtb growth,Arbovirus inh,Mtb bLac sens,others
COc1cc(CNC(=O)c2nc(Cn3nc(C)c(Br)c3C)no2)cc(OC)c1,-1.3,nt,4%,4,0,
COCc1c(C(=O)Nc2ccc(Cl)cc2F)oc2ccccc12,0.6,nt,-5%,-7,1,
C[C@H](NC(=O)C1CCN(S(=O)(=O)c2ccccc2)CC1)C(=O)NCc1cccc(C(F)(F)F)c1,1.6,nt,nt,nt,0,
O=C(NCc1nnc(SCC(=O)N2CCCCC2)o1)c1ccc(F)cc1,-0.6,nt,nt,nt,-19,
COc1cc(OC)c2c(C)cc(=O)oc2c1,0.1,-8,3%,-9,27,
CC1CN(C(=O)CN2C(=O)NC3(CCCCCCC3)C2=O)CC(C)O1 (centres undefined),0.8,-46,-10%,0,-1,
C#CCN1CCN(c2ccc(F)cc2)CC1,1.3,nt,8%,-1,-5,
Cn1c(C(=O)N2CCCC(C(=O)c3ccc(C(F)(F)F)cc3)C2)cc(=O)n(C)c1=O (centres undefined),-0.3,nt,-2%,-2,-3,
COc1ccc(CC(=O)NNS(=O)(=O)c2ccc(F)cc2)cc1,-1.5,nt,nt,nt,5,
COc1ccccc1NS(=O)(=O)c1ccc(O)c(C(N)=O)c1,-2.7,-33,-9%,7,-8,
COc1ccc(N(C(=O)CNC(=O)c2cccs2)C(C(=O)NCC2CCCO2)c2ccccc2)cc1OC (centres undefined),-0.5,nt,-8%,2,-13,
COc1ccc(C2CC(c3ccc(Cl)cc3)n3nc(N)nc3N2)cc1 (centres undefined),-9.9,-39,1%,10,2,Arbovirus inh repeat=-2
CSc1ccccc1NC(=O)CSCc1nc2sc(C)c(C)c2c(=O)[nH]1,-3.3,nt,nt,nt,-1,
O=C(OCC(=O)c1c[nH]c2ccccc12)c1ccc(Br)o1,-7.3,-13,7%,0,-5,
O=C(N/N=C/c1c[nH]c2ccccc12)c1cc(-c2cccc3ccccc23)n[nH]1,7.7,-7,3%,-31,92,
O=C(CCCOc1ccc(Cl)cc1Cl)N1CCN(c2ccccn2)CC1,2.5,-10,9%,-19,98,
Cc1ccc(-n2nc3c(c2NC(=O)C(C)(C)C)CSC3)c(C)c1,-1.0,-36,-6%,2,2,
CC(C)(C)c1nnc(N/N=C/c2cc(Br)ccc2O)n(N)c1=O,12,-38,10%,-40,5,
N#Cc1c(N)n(CCc2ccc(F)cc2)c2nc3ccccc3nc12,-114,-9,8%,9,7,
COc1ccc(N2CCN(C(=O)CSc3nnc4c5cc(C)ccc5n(C)c4n3)CC2)cc1,-0.6,-36,2%,-5,6,
O=C(/C=C1\SC(=O)N(CC(=O)Nc2ccc(F)cc2)C1=O)Nc1ccc(Cl)cc1,-1.9,-24,3%,3,4,
O=C(O)c1cc2cc(F)ccc2[nH]1,2.3,-17,-1%,20,3,
COc1ccc(C(=O)CSc2nnc3ccc(-c4ccccn4)nn23)cc1,-4.1,nt,3%,-4,2,
COc1cc2c(cc1OC)C(c1cccc([N+](=O)[O-])c1)N(C(=O)c1ccccc1C(=O)O)CC2 (centres undefined),-7.7,nt,-8%,-1,-4,
COc1ccc(-c2nnn(CCC(=O)O)n2)cc1,0.8,-32,-4%,2,-4,
O=[N+]([O-])c1ccc(N2CCCCC2)cc1SCCO,-3.5,nt,-1%,9,7,
O=C(/C(C=Nc1ccc(Br)cc1)=C(/O)c1ccco1)C(F)(F)F,-3.4,-29,1%,-18,-1,
O=[N+]([O-])c1ccc(N2CCN(c3ccccc3F)CC2)nc1,0.0,nt,nt,nt,-3,
CCc1ccc(-c2cc3c(=O)n(CC(=O)NCCN4CCCCC4C)nc(C)n3n2)cc1 (centres undefined),0.5,nt,nt,nt,-1,
COc1ccc(-c2ccc(CCC(=O)O)n2NC(N)=O)cc1,1.1,nt,nt,nt,-1,
Cc1nc2cc(N3CCCCC3)c(NC(=O)c3cccnc3)cc2c(=O)n1Cc1ccccc1,4.9,-24,10%,8,11,
Cn1ccnc1SCC(=O)c1cc2ccccc2o1,3.9,-32,-6%,-1,-4,Arbovirus inh repeat=-9
O=C(Oc1cccc2ccccc12)C1CC1,-3.8,nt,nt,nt,49,
CN(C)c1nc(NCc2ccccc2)nc(N/N=C/c2ccccc2F)n1,-3.8,nt,?,11,52,
Cc1ccc(CCNC(=O)C2CCCN(S(=O)(=O)N3CC(C)CC(C)C3)C2)cc1 (centres undefined),0.6,nt,nt,nt,0,
COC(=O)c1cc(C#N)c(NCc2ccc(Cl)cc2Cl)nc1C,2.5,-14,-2%,3,-5,
CCC(=O)N(CCC(c1ccco1)C(C)C)Cc1ccccc1 (centres undefined),13,nt,1%,nt,0,
O=C(COC(=O)C1CC2C=CC1C2)NCc1ccco1 (centres undefined),3.3,-28,-5%,2,-4,
COC(=O)Nc1ccc(S(=O)(=O)N2CCCC(C(=O)N3CCCCCC3)C2)cc1 (centres undefined),3.4,nt,3%,5,-3,
CN(C)P(=O)(C(Cl)=C(N1CCCCC1)N1CCCCC1)N(C)C,-0.8,-42,1%,4,-5,
O=C(O)c1ccccc1-c1nc2ccccc2[nH]1,0.7,nt,6%,7,0,
Cc1nn(C(C)C(=O)O)c(C)c1[N+](=O)[O-] (centres undefined),5.7,nt,0%,20,-4,
O=C(Nc1ccc(C(=O)NCc2ccc(F)cc2)cc1)C1=CSCCO1,0.9,nt,nt,nt,-2,
COC(=O)Cn1c(=NC(=O)c2ccc(OC)c(OC)c2)sc2cc(OC)ccc21,10,-33,6%,-2,3,
O=C(Cn1cccc(C(F)(F)F)c1=O)c1ccc(Cl)cc1,2.3,nt,-8%,nt,-5,
O=C(O)CCC1COc2ccccc2O1 (centres undefined),1.0,-23,-3%,3,8,
O=S(=O)(c1ccc(OCC(O)CN2CCN(c3ccc(F)cc3)CC2)cc1)N1CCOCC1 (centres undefined),-0.7,7,2%,7,-1,
COc1ccccc1NCC(O)COc1ccc(C(C)(C)C)cc1 (centres undefined),5.9,nt,6%,-33,15,
c1ccc(COc2ccccc2CNC2CCCC2)cc1,0.9,nt,-8%,13,-2,
CC(C)c1ccc(C2(O)C(=O)Nc3cc(Br)ccc32)c(O)c1 (centres undefined),14,nt,nt,nt,1,
CCNS(=O)(=O)c1ccc(CCC(=O)N2CCN(C(=O)OCC)CC2)cc1,-0.3,nt,nt,nt,-6,
Cc1[nH]nc(SCC(=O)NCc2ccc(Cl)cc2)c1[N+](=O)[O-],-0.5,-22,1%,-1,-2,
CC(C)CCNC(=O)CN(Cc1ccco1)C(=O)c1snc(C(N)=O)c1N,0.1,nt,4%,16,-3,
COc1ccc(CNC(=O)/C=C/c2cc([N+](=O)[O-])ccc2OC(F)F)cc1OC,0.2,1,0%,-4,5,
COC(=O)[C@H](C)NC(=O)NCc1ccccc1,0.2,nt,-8%,nt,-8,
CC(=O)c1c(N2CCN(C)CC2)nc(=S)n(Cc2ccccc2)c1C,-1.9,-23,-3%,6,0,
O=C(NNC(=O)c1ccccc1O)c1cccc(Br)c1,5.8,nt,nt,nt,11,
CCCCCC1CC(CC#CCN2CCOCC2)C(=O)O1 (centres undefined),-5.2,-32,-8%,-3,?,
CC(=NCc1cccnc1)C1=C(O)c2ccccc2C1=O,-0.2,-4,5%,-15,-2,Arbovirus inh repeat=-7
CC(=O)CSc1cc(C)nc2c(-c3ccccc3)c(C)nn12,-1.1,nt,-3%,nt,32,

# The list goes on (3 carried over from the part before).
SMILES,RecA intein inh,YopH inh,Mtb growth,Arbovirus inh,Mtb bLac sens,others
CCCCCC1CC(CC#CCN2CCOCC2)C(=O)O1 (centres undefined),-5.2,-32,-8%,-3,?,
CC(=NCc1cccnc1)C1=C(O)c2ccccc2C1=O,-0.2,-4,5%,-15,-2,Arbovirus inh repeat=-7
CC(=O)CSc1cc(C)nc2c(-c3ccccc3)c(C)nn12,-1.1,nt,-3%,nt,32,
COc1cccc(NC(=O)CN(C)C(=O)c2ccc(COc3ccccc3)cc2)c1,0.2,nt,nt,nt,0,
CCc1cc(=O)oc2c(C)c(OCC(=O)NCCN3CCOCC3)ccc12,-1.3,nt,nt,nt,-3,
COC(=O)CC1Oc2ccccc2N(Cc2ccccc2)C1=O (centres undefined),2.1,-33,6%,1,-4,Arbovirus inh repeat=-1
CCOc1cc(NC(=S)N2CCC(C(N)=O)CC2)c(C(=O)OC)cc1OCC,-0.4,nt,2%,2,-3,
CC(C)CN1C(=O)/C(=C/c2ccco2)NC1=S,11,-2,-1%,5,3,
COc1cccc(CC(=O)N(C)C2CCCN(Cc3ccccc3F)C2)c1 (centres undefined),0.0,nt,nt,nt,3,
O=C(CSc1ncn[nH]1)Nc1nnc(-c2ccccc2)s1,4.2,nt,4%,4,68,Arbovirus inh repeat=7

# Compound activity: PubChem BioAssay, several laboratories

# Not all compounds are listed; the hit share may differ from the screen's.
